Sa RN4220 lethal: S. aureus RN4220 growth inhibition; OD600, 16 h; inhibition, % (no concentration beside the values); 0.33% of 330,000 active; AID 1259311;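 active = z-score of -3 or lower and OD600 up to 0.18 on both plates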;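 note: plate controls were untreated cells for no effect and reference antibiotic for full effect; stock transfer was 100 nL into about 80 µL; one replicate is shown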
PrP UTR inh: suppresses PrP 5' UTR mRNA reporter expression; AID 488862; 0.35% of 340,000 active; inhibition, % (test concentration not listed); cell-based PrP 5' UTR mRNA reporter, plate reader;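 active = every replicate at 50% or more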;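 note: 0 = median of the neutral control wells; tested in H4 reporter cells; numbers are from one replicate; inactives centre near -14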
ugtP null kill: growth inhibition of S. aureus ugtP deletion strain; S. aureus RN4220 ugtP deletion, OD600 growth, 16 h; some inactives read as strong as hits; AID 1259309; 0.54% of 330,000 active; growth inhibition, % (no concentration beside the values);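 active = z-score under -3 and OD600 up to 0.15 on both plates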;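 note: plate controls were untreated wells for no effect and antibiotic for full effect; wells of about 80 µL received 100 nL stock; the first replicate is given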
Bead autofluor: counter-screen for toxin protease inhibitors: compound fluorescence; compound autofluorescence counterscreen, microsphere flow cytometry; hits give high values; 3.1% of 360,000 active; fluorescence intensity (test concentration not listed); AID 624483;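 active = at least 3 SD above the mean of all compounds, about 16000 in these data; inconclusive = too few beads counted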;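 note: 100 nL of 1 mM stock went into each well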
Mtb hypoxia inh: reduces hypoxia-regulated biosensor signal in M. tuberculosis; M. tuberculosis hypoxia-regulated fluorescent reporter, fluorescence; fluorescence inhibition, % (no concentration beside the values); 0.1% of 300,000 active;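 active = 35 to 45% if threefold the growth effect, above 45% if 1.5-fold the growth effect; inactive = the rest, general growth blockers included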;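 note: wells of about 50 µL received 100 nL stock; 0% = vehicle wells and 100% = reference inhibitor wells; whole bacteria with a GFP reporter of the hypoxia response; strong numbers were not always called active; many hits fall short of the cut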
BJeLR lethal: kills HRASV12-expressing BJeLR cells; BJeLR (HRASV12) viability, CellTiter-Glo ATP luminescence, 48 h; reference of the scale not given here; inhibition, % (test concentration not listed); 0.17% of 300,000 active;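 active = replicate mean above 50%; inconclusive = above 50% but judged a plate artefact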;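 note: 50 nL library stock added to about 25 µL; numbers are from one replicate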
Mtb hypoxia inh growth: also measured in Mtb hypoxia inh; calls as there; growth inhibition, %; measured here: M. tuberculosis growth (absorbance);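 0% = vehicle and 100% = reference antibiotic; read after six days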
* hit, by the source's call; ? = inconclusive; . = not tested or not shown.

SMILES	Sa RN4220 lethal	PrP UTR inh	ugtP null kill	Bead autofluor	Mtb hypoxia inh	Mtb hypoxia inh growth	BJeLR lethal
O=C(COC(=O)c1cc(=O)c2ccccc2o1)Nc1c(F)c(F)c(F)c(F)c1F	1.2	-17	6	6664	3	2	.
Cc1cc(NC(=O)C23CC4CC(CC(C4)C2)C3)n[nH]1	9.0	-29	-1	4586	18	7	-1
COc1ccc(NS(=O)(=O)c2ccc(N3CCOCC3)c(NC(=O)c3ccco3)c2)cc1	5.0	-9	6	4186	16	-2	-5
COc1ccc(CCNC(=O)CN(c2cc(OC)ccc2OC)S(=O)(=O)c2ccccc2)cc1	3.6	-25	6	3672	6	4	5
COc1ccc(S(=O)(=O)N2CCOC2CNC(=O)C(=O)NCc2ccccn2)cc1C (configuration not stated)	1.2	-19	8	5966	0	-2	4
CCc1ccc(C(=O)CSc2nc3cc(S(=O)(=O)N4CCOCC4)ccc3n2CC)cc1	5.8	-13	-7	1896	-7	10	-14
COC(=O)[C@H](Cc1ccccc1)NC(=O)NCCc1ccc(OC)cc1	3.9	10	3	3969	-5	3	0
Cc1cccc(C)c1OC(=O)CCN1C(=O)C2C3C=CC(C4CC34)C2C1=O (configuration not stated)	2.9	-34	8	2599	8	1	-16
O=C(COc1ccc(S(=O)(=O)NC2CCCCC2)cc1)Nc1ccc2c(c1)OCCO2	1.3	-5	12	5820	.	.	-2
CCOC(=O)NN=Cc1cc(OC)c(O)c(OC)c1	1.0	.	0	.	6	4	.
COc1cc(/C=C(\C#N)C(=O)NCC2CCCO2)ccc1OC(=O)c1ccco1 (configuration not stated)	1.0	-17	6	8026	4	6	.
O=c1cccccc1NCc1ccccc1	3.8	-35	-3	9185	20	7	2
Cc1cccc(N2CC34C=CC(O3)C(C(=O)O)C4C2=O)c1 (configuration not stated)	-3.6	-6	0	4861	6	7	-1
CCOC(=O)c1[nH]c(C)c(C(=O)OC(C)C(=O)Nc2ncc(Cl)cc2Cl)c1C (configuration not stated)	6.9	-12	-2	4733	5	6	2
CCOC(=O)N1CCN(C(=O)c2ccc3c(=O)n(-c4ccc(F)cc4)c(=S)[nH]c3c2)CC1	-2.6	1	-4	8855	-1	1	1
COCCN(C(=O)CSc1nn(-c2ccc(F)cc2)c(=S)s1)c1c(N)n(CC(C)C)c(=O)[nH]c1=O	3.4	-8	8	4117	7	-1	-5
COc1cc(CCC(=O)OCc2nnc(-c3ccccc3)o2)cc(OC)c1OC	2.3	-13	6	4206	.	.	-9
CC(C)(C)C(=O)Nc1ccccc1-c1nc2ccccc2[nH]c1=O	2.2	-17	5	3755	6	-2	24
COc1ccc(/C=C2\Oc3cc(OCC(=O)N4CCC(C(=O)O)CC4)ccc3C2=O)c(OC)c1	2.6	-31	-10	5757	.	.	0
O=C(CCNC(=O)N1C[C@H]2C[C@@H](C1)c1cccc(=O)n1C2)Nc1cccc(Cl)c1	-4.4	-11	-7	5692	.	.	-6
Fc1ccc(/C=N/n2c(COc3ccccc3)n[nH]c2=S)cc1	.	-11	.	3646	.	.	13
O=C(Cc1ccc(Cl)cc1Cl)OCC(=O)N1CCCCC1	0.2	-8	11	5221	3	11	7
COC(=O)C1NN=C(C(=O)c2ccc(Cl)cc2)C1c1ccc(OC)cc1 (configuration not stated)	5.5	-13	15	2117	18	9	3
CCN(CC(=O)NCc1ccc(Cl)cc1)C(=O)c1c(C)noc1C	-1.1	-6	-1	7500	9	6	.
S=C(NCC1CCCO1)n1nnc2ccccc21 (configuration not stated)	5.5	.	-3	.	4	8	-10

Next section.
SMILES	Sa RN4220 lethal	PrP UTR inh	ugtP null kill	Bead autofluor	Mtb hypoxia inh	Mtb hypoxia inh growth	BJeLR lethal
CCOc1ccc(-c2nn3c(-c4ccccc4)nnc3s2)cc1	5.5	-25	-15	8088	-6	-15	4
Cc1sc(NC(=O)c2ccco2)nc1-c1ccc2c(c1)CC(C)N2C(=O)C1CC1 (configuration not stated)	13	-31	-18	16027	1	-1	10
O=C(NC1CCCCCC1)C1CCCN1S(=O)(=O)c1cccc2cccnc12 (configuration not stated)	7.3	-29	-11	4894	.	.	2
Cc1cc(C)nc(N/N=C/c2c(C)oc3ccccc23)n1	.	-1	.	4665	.	.	4
Nc1cc(=O)[nH]c(SCc2csc(-c3ccccc3)n2)n1	5.2	-12	0	2386	-2	7	-5
Cc1cc(C)c(-n2[nH]nnc2=S)c(C)c1	5.4	-26	8	4695	9	5	1
COc1ccccc1NC(=O)C1CCN(S(=O)(=O)c2cccc3nonc23)CC1	-0.1	-17	3	3805	-1	6	-5
O=C(NCC(=O)N1CCCCCC1)c1ccc(Cl)cc1	3.8	-24	7	3951	9	10	-3
CCCC(=O)Nc1ccc2c(c1)nc(CN1CCN(C(=O)OCC)CC1)n2C	-0.3	-5	5	3269	4	-1	-5
COc1cccc(C=NNC(=S)NN=Cc2cccc(OC)c2OC)c1OC	6.7	-13	1	?	12	15	.
C#CCOCCOCCOCCNc1nc(N2CCN(C(=O)C(CCCCN)n3cc(C(N)CO)nn3)CC2)nc(N2CCN(C(=O)C(Cc3ccc(O)cc3)n3cc(C(N)CC(C)C)nn3)CC2)n1 (configuration not stated)	9.5	.	12	.	12	10	.
Cc1onc(-c2ccccc2)c1C(=O)N(Cc1ccccn1)Cc1ccccn1	2.4	-26	13	3154	2	2	2
CCOC(=O)c1sc(NS(=O)(=O)c2ccc(F)cc2)nc1C	1.0	-11	1	4068	-3	1	0
C/C(C=NNC(=O)c1nnn(-c2nonc2N)c1CN1CCC(C)CC1)=C/c1ccccc1	9.0	.	-1	.	4	12	.
CCc1nnc(NC(=O)c2cc(C)oc2C)s1	4.3	-68	2	5440	4	-8	-6
C[C@H](NS(=O)(=O)c1c(Cl)cccc1Cl)C(=O)NNC(=O)COc1ccccc1F	3.0	1	0	3721	3	4	.
C/C(=N\O)C(C)(C)NC(=O)Nc1ccc(Cl)cc1	.	-15	.	4153	.	.	-2
CC(=O)N(CCCN(C)C)c1nc2ccc(C)cc2s1	1.3	5	3	3988	7	11	-2
Cc1nn(C)c(C)c1S(=O)(=O)N1CCCC(C(=O)N2CCN(c3ccc(Cl)cc3)CC2)C1 (configuration not stated)	0.1	-4	2	3742	15	10	13
COC(=O)C1=C(CSc2nc3c(cc2C#N)CN(C)CC3)OC(N)=C(C#N)C1c1ccccc1F (configuration not stated)	1.1	-9	5	5921	14	5	8
CCOc1cc(C(c2c(O)nc(SC)[nH]c2=O)c2c(O)nc(SC)[nH]c2=O)ccc1O	-0.2	.	-8	5817	-2	9	-14
CCc1nnc(NS(=O)(=O)c2ccc(NS(=O)(=O)c3ccccc3)cc2)s1	-3.8	-6	-2	9198	-5	12	-1
Nn1c(SCC(=O)Nc2ccc(F)cc2F)nnc1C1CCCCC1	10	-23	2	?	9	17	-2
CCOCCn1cnc2sc(C(=O)NCC(=O)OCC)c(C)c2c1=O	4.8	-29	-1	5175	.	.	-5
O=C(O)Cn1nc(C(F)(F)F)c2c1CCC2	2.9	-5	9	7046	1	-2	-10

6 compounds drawn at random from those above:
SMILES	Sa RN4220 lethal	PrP UTR inh	ugtP null kill	Bead autofluor	Mtb hypoxia inh	Mtb hypoxia inh growth	BJeLR lethal
CCc1nnc(NS(=O)(=O)c2ccc(NS(=O)(=O)c3ccccc3)cc2)s1	-3.8	-6	-2	9198	-5	12	-1
COC(=O)C1=C(CSc2nc3c(cc2C#N)CN(C)CC3)OC(N)=C(C#N)C1c1ccccc1F (configuration not stated)	1.1	-9	5	5921	14	5	8
Cc1cc(C)c(-n2[nH]nnc2=S)c(C)c1	5.4	-26	8	4695	9	5	1
O=C(O)Cn1nc(C(F)(F)F)c2c1CCC2	2.9	-5	9	7046	1	-2	-10
O=C(NCC(=O)N1CCCCCC1)c1ccc(Cl)cc1	3.8	-24	7	3951	9	10	-3
CCOCCn1cnc2sc(C(=O)NCC(=O)OCC)c(C)c2c1=O	4.8	-29	-1	5175	.	.	-5

(continued)
SMILES	Sa RN4220 lethal	PrP UTR inh	ugtP null kill	Bead autofluor	Mtb hypoxia inh	Mtb hypoxia inh growth	BJeLR lethal
O=C(CN1C(=O)NC2(CCCC2)C1=O)OCCOc1ccc(Cl)cc1	1.4	-5	4	5002	10	9	6
NC1=C(O)C(=O)C(c2ccccc2)O1 (configuration not stated)	0.7	-24	2	3419	-8	5	14
O=C(NCc1ccccc1)N1CCCC1	1.6	-13	13	2935	19	6	-11
CCOc1ccc(-c2cnc(SCC(N)=O)nc2N)cc1	7.3	-6	10	2108	.	.	8
CCO/N=C(\C)c1c(O)c2ccccc2n(C)c1=O	.	-16	.	2531	.	.	-1
Cc1ccccc1C(=O)NNC(=O)c1cccc(Br)c1	1.5	-3	5	3143	5	-4	-2
Cc1ccn2c(C(=O)CSc3ccccc3Cl)c(C)nc2c1	-5.2	-25	1	3004	.	.	3
CN(Cc1ccccc1)c1nc2c(c(=O)n(C)c(=O)n2C)n1CCSc1ncccn1	-8.1	1	2	5883	1	4	-7
CSCCC(NC(=O)/C(=C/c1ccco1)NC(=O)c1ccco1)C(=O)O (configuration not stated)	-7.8	.	-7	6021	-7	-10	-8
Cc1ccc2cccc(OC(=O)N3CCCC3)c2n1	0.2	-4	-5	22325*	-3	-8	0
O=C(c1csc2c1CCCC2)N1CCCCC1	0.2	-65	-3	4131	17	22	-3
Cc1ccc(S(=O)(=O)N(CC(=O)O)Cc2ccccc2)cc1	3.4	-23	5	11275	13	1	12
Cc1ccccc1CC(=O)NC1CCN(Cc2ccccc2)CC1	3.7	-17	6	4307	14	14	-2
COC(=O)C1=C(c2ccc(OC(F)(F)F)cc2)CC2CCC1N2C(=O)N1CCCCC1 (configuration not stated)	4.7	.	7	.	5	4	.
CCCCNC(=O)CCn1c(=O)c2ccccc2n(CC(=O)N2CC(C)CC(C)C2)c1=O (configuration not stated)	-1.4	-22	-2	2410	.	.	-2
CSc1cnc2c(N)nc(N(C)C)nc2n1	5.8	1	1	2866	12	1	4
CCn1cc(CN2CCC(C(=O)Nc3ccc(Oc4cccnc4)cc3)CC2)cn1	-5.0	-13	-7	5059	10	-39	-2
Cc1ccc(N2CC(=O)N(NC(=O)CN3CCN(c4ccccc4)CC3)CC2=O)cc1	4.5	-48	13	5971	10	2	3
CN(C(=O)c1cc(COc2ccc(F)cc2Cl)on1)C1CCCc2ccccc21 (configuration not stated)	11	-13	-8	6373	2	0	-9
O=C(NC(=S)Nc1ccccc1C(=O)O)c1ccc2ccccc2c1	14	-20	-3	?	14	4	-1
O=[N+]([O-])c1ccccc1Nc1ccc(O)cc1	.	-14	.	4373	.	.	4
COc1cc2[nH]c3c(=O)n(CCN4CCCCC4)cnc3c2cc1OC	2.8	-7	5	3341	.	.	0
CN(C)CCCN(C(=O)c1ccc(S(=O)(=O)N2CCc3ccccc32)cc1)c1nc2ccc(Cl)cc2s1	-0.3	-17	-11	6728	9	0	-12
COc1cc(CNCc2c[nH]c3ccccc23)cc(OC)c1	-5.4	-13	0	4047	5	-4	13
COc1ccc(NC(=S)Nc2nc(CC(=O)Nc3ccccc3OC)cs2)cc1	-6.7	-19	-18	8941	3	1	0

Going on with the list.
SMILES	Sa RN4220 lethal	PrP UTR inh	ugtP null kill	Bead autofluor	Mtb hypoxia inh	Mtb hypoxia inh growth	BJeLR lethal
CSc1nc(N)nc2c1ncn2Cc1ccccc1	-0.7	-25	1	3910	11	5	.
NC(=O)CSc1nc(C23CC4CC(CC(C4)C2)C3)nc2ccccc12	5.0	-3	6	4411	-4	7	7
O=C(O)C1=C(Nc2ccccc2)OCC1=O	4.7	-4	4	3196	-2	3	0
C#CCOCCOCCOCCNc1nc(N2CCN(C(=O)C(C(C)C)n3cc(CCO)nn3)CC2)nc(N2CCN(C(=O)C(C(C)CC)n3cc(CCCCN)nn3)CC2)n1 (configuration not stated)	5.1	.	3	.	16	10	.
COC(=O)c1ccc2c(c1)C(C)(C)C(/C=C/c1ccc(O)cc1)=[N+]2C	5.1	-32	-16	10719	1	13	29
Cc1ccccc1-n1c(Cn2c(=O)sc3ccccc32)nnc1SC(C)C	7.1	-14	-6	6137	4	8	-14
CN(Cc1ccccc1)S(=O)(=O)c1ccc(Cl)c(C(=O)NCCc2ccccn2)c1	13	-13	6	4316	7	13	6
Cc1cc(C)cc(OCC(=O)Nc2cccc(S(=O)(=O)NC3=NCCC3)c2)c1	6.2	-20	10	6558	23	31	.
COC(=O)CCCSc1nccn1-c1ccccc1	3.7	-24	2	4260	11	7	-1
O=C(NN=C1CCSc2ccc(F)cc21)c1cccnc1	-3.4	.	5	.	7	10	.
CC1CCC(NC(=O)CCS(=O)(=O)c2ccc3c(c2)NC(=O)CO3)CC1 (configuration not stated)	3.1	-47	3	5348	12	2	-5

Source: PubChem BioAssay
